From PubChem BioAssay
GLA inh pH 4.5: blocks human alpha-galactosidase A at pH 4.5; P06280; purified enzyme, 4-MU-alpha-Gal fluorescence, pH 4.5; activity change, negative = inhibition, % at 105 µM; 230,000 tested, under 10 active; inconclusive = small, poorly fitted or top-dose-only inhibition, or a rising curve; inactive = flat fitted curve, though single readings scatter; no compound was filed as active;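 further: 0% = full activity with enzyme and -100% = basal without enzyme; dose as in the result columns while the protocol names 77 µM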
Target sequence (P06280 whole entry, looked up): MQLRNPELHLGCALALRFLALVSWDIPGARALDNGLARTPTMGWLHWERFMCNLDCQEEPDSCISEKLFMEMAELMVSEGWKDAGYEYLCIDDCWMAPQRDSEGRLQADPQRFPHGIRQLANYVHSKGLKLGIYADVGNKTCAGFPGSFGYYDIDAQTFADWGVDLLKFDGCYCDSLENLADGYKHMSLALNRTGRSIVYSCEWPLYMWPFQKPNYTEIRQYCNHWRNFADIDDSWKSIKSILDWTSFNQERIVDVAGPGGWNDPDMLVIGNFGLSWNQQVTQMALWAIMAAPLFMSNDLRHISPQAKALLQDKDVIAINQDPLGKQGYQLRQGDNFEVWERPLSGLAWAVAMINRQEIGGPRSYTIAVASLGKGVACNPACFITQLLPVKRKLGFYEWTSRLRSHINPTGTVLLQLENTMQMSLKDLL
miR-21 FLuc: raises the signal of a miR-21 reporter; Potency, µM (doses to about 38.3 µM), for inactives: at the top dose reporter change, positive = more light; 340,000 tested, under 10 active; AID 2288; HeLa miR-21 FLuc reporter, luciferase, 48 h; active = well fitted rising curve with a large enough effect; inconclusive = small, poorly fitted or top-dose-only effect; inactive = no such curve, though single readings can be large or run the other way;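 further: % of control where 0% means no effect; miR-21 action dims this reporter so a rising signal means less miR-21 action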
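Compounds were titrated across several concentrations (up to approximately 40 uM) and incubated 48 hours with HeLa miR-21-FLuc reporter cells (miR-21 target sequence downstream of FLuc, endogenous miR-21). Readout was firefly luciferase luminescence after lytic detection reagent.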
Rango release inh: prevents RanGTP from dissociating the Rango-importin beta complex; 340,000 compounds, 0.071% hits; Biochemical FRET Rango-importin beta, RanGTP-induced dissociation; Potency, µM (doses to about 46.1 µM), without a hit: top-dose activity change, negative = inhibition; O95149+P62826; active means falling FRET ratio curve, often poorly fitted, with flat reads before Ran was added; inconclusive means other falling curves, or compound fluorescence or quenching; inactive means flat or rising ratio curve;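 further: potency means the concentration at half of the fitted maximal effect; % of control where 0% means no effect; nearly all actives have a fitted effect of over 45% in size; -100% = wells without RanGTP and RCC1; the record marks most hits as doubtful in a second field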
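Rango FRET biosensor (snurportin-1 IBB flanked by N-terminal EYFP and C-terminal CFP10) at 0.1 uM, with 0.25 uM importin beta in PBS, 1mM DTT, 0.02% Tween-20, 0.1% BSA. 0.6 uM Ran, 2mM GTP and 0.2 uM RCC1 were then added for 45 min at room temperature. Inhibition read as loss of FRET rise.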
Rango-impB inh: Rango-importin beta binding inhibition | Q14974 | Rango CFP/YFP FRET sensor + importin beta, 45 min | Potency, µM (highest dose often 92.2 µM), for inactives: at the highest dose inhibition of complex formation | 340,000 compounds, 0.031% hits | AID 540263; active = rising FRET ratio curve, often small or poorly fitted; inconclusive = mostly compound fluorescence or quenching in the first reads; inactive = flat curves in all reads;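 further: potency means the concentration at half of the fitted maximal effect; 0% = DMSO wells and 100% = buffer wells lacking importin beta; nearly all actives have a fitted effect of over 15% in size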
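FRET biosensor (snurportin 1 IBB flanked by EYFP and cerulean), 50 nM, with compound 5 min, then 0.125 microM importin beta in PBS, 1 mM DTT, 0.02% Tween-20, 0.1% BSA. CFP/YFP ratio read after 45 min at room temperature; pre-read flags interference.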
Active calls of the source: *; ? = inconclusive; . = no result given; & = joins results of further samples; [ ] = dose if it differs, or a comment. Only part of the results is shown (hit frequency here may not be typical).

SMILES	GLA inh pH 4.5	miR-21 FLuc	Rango release inh	Rango-impB inh
Cn1nc(C(=O)Nc2ccc(Cl)c(S(=O)(=O)N3CCOCC3)c2)c2ccccc2c1=O	.	.	11%	0.4%
O=C1/C(=C/c2cccs2)SC(=S)N1c1ccccc1	5	-4%	12%	0.8%
Cc1ccc(C(c2nnnn2CC2CCCO2)N2CCN(C(=O)c3ccco3)CC2)cc1 (stereo not given)	5	2%	-4%	0.3%
CC1(C)CC2(CCCN(CC(O)(c3ccccc3)c3ccccc3)C2)CCO1 (stereo not given)	-5	9%	-10%	-0.3%
O=C(Nc1ccc2c(c1)OCO2)c1ccc(Cl)nc1	2	-38%	3%	0.5%
O=C(CCNC(=O)c1ccccc1)OCN1C(=O)c2ccccc2C1=O	3	-1%	-2%	1.2%
COc1ccc(Cl)cc1S(=O)(=O)N1CCCC1=O	1	-3%	-1%	2.1%
Cc1[nH]c2ccccc2c1C(=O)C(C)OC(=O)c1ccc([N+](=O)[O-])o1 (stereo not given)	-7	8%	6%	3.1%
Cn1cc(C=O)c2ccccc21	2	-1%	-9%	4.4%
Cc1ccccc1S(=O)(=O)Nc1cccnc1	2	-6%	1%	-1.1%
COc1ccc(CN2CSC(=S)N(Cc3ccccc3)C2)cc1	.	7%	0%	0.4%
COc1cccc(CNc2nc3ccc(C)cc3n3cnnc23)c1	-1	-2%	-10%	?
COc1cc(OC)c(OC)cc1CNC(=O)c1cc(S(=O)(=O)N2CCOCC2)ccc1F	.	.	0%	9.7%
COc1ccc(C2CC(=O)Oc3cc(C)cc(C)c32)cc1 (stereo not given)	-12	.	?	4.9%
Cn1cccc1CNC(=O)Nc1ccc(Cl)cc1	-6	-37%	-2%	-0.7%
Brc1[nH]nc2ccccc12	-13	-2%	-19%	0.1%
CCc1c(C(=O)NCc2ccccc2Cl)[nH]c(C)c1C(C)=O	8	1%	2%	-2.8%
Fc1ccc(/C=N/Nc2cc(N3CCOCC3)ncn2)cc1	.	-14%	14%	?
CC(C(=O)NCCc1ccccc1)N1c2cccc3cccc(c23)S1(=O)=O (stereo not given)	.	-8%	5%	-2.9%
COc1cc(-c2noc(C)c2C#Cc2ccc(N)cc2)cc(OC)c1OC	.	2%	-3%	-1.7%
CCCn1c(O)c(C=Nc2ccccc2)sc1=S	-2	-46%	?	?
Cc1ccccc1OCC(=O)Nc1ccc2oc(=O)ccc2c1	7	-15%	-8%	-1.8%
CC[n+]1c(S(=O)(=O)[O-])ccc2ccc(C)cc21	-2	-8%	-1%	1.2%
COCCCNC(=O)c1ccccc1NS(C)(=O)=O	-6	-8%	8%	1.6%
O=C(Nc1cccc(C(F)(F)F)c1)c1ccc(N2CCNCC2)c([N+](=O)[O-])c1	-7	2%	-7%	7.9%
CC1CCN(C(=O)c2ccc(NC3=C(Cl)C(=O)N(Cc4ccccc4)C3=O)cc2)CC1	.	.	?	?
CC(C)[C@H]1CN=C2N(CCNC(=O)CCC3CCCCC3)[C@H](Cc3ccc(O)cc3)CN21	2	2%	-9%	-0.1%
COc1ccc(-c2cc3c(=O)n(CC(=O)Nc4ccc(C(C)=O)cc4)ncn3n2)cc1	.	-18%	-14%	6.7%
O=C(COC(=O)c1ccc2c(c1Cl)C(=O)c1ccccc1C2=O)NC1CC1	3	-14%	4%	0.0%
COc1ccc(NC(=O)C2CCN(S(=O)(=O)c3ccc(Br)s3)CC2)cc1OC	7	-6%	-2%	-5.1%
CC1CCC2(CC1)NC(=O)N(NC(=O)c1cc3ccccc3o1)C2=O (stereo not given)	.	.	-3%	-0.5%
COc1ccc(C(=O)CSc2nnc(COc3ccc(C#N)cc3)n2-c2ccccc2)cc1	6	-4%	3%	0.3%
CCOC(=O)c1c(C)[nH]c(C)c1C(=O)CSc1nc2ccccc2n1CCC#N	6	-6%	-12%	-0.5%
O=C(NCc1ccc(N2CCCC2=O)cc1)c1cnccn1	6	0%	-3%	-4.6%
CSc1nc(Oc2ccc3ccccc3c2)c2sccc2n1	0	18%	-9%	-5.4%
c1ccc(Cn2c(NCc3ccccn3)nc3ccccc32)cc1	-9	-6%	1%	0.4%
Cc1cccc(N2CCN(C(=O)c3cc4c(=O)n(C)c5ccccc5c4n3C)CC2)c1C	1	-4%	-1%	-4.2%
Cc1cc(=O)oc2c(CN3CCCCC3)c(O)c(Cl)cc12	?	-7%	?	?
O=C(COC(=O)CCC(=O)c1ccc(Cl)cc1)NCCc1ccccc1	-5	5%	-7%	-7.1%
COc1ccc(CNC(=O)C/C(C)=N/NC(=O)c2cnccn2)cc1	9	-10%	-6%	0.0%
NNC(=O)c1cc(Cl)ccc1Cl	-4	16%	-5%	0.3%
CC(=O)Nc1ccc(NC(=O)CSc2ccc(-c3ccc(-n4ccnc4)cc3)nn2)cc1	.	.	-1%	-1.1%
O=C(NCC(c1ccco1)N1CCCCC1)c1cccs1 (stereo not given)	.	.	-12%	-3.9%
O=C(CSc1cccc[n+]1[O-])c1ccccc1Br	-1	-17%	0%	3.3%
CC(=O)c1ccn(S(=O)(=O)c2ccc(Cl)cc2)c1	-1	-2%	1%	-2.5%

The final 7 entries of the section before come first, to join the parts.
SMILES	GLA inh pH 4.5	miR-21 FLuc	Rango release inh	Rango-impB inh
O=C(COC(=O)CCC(=O)c1ccc(Cl)cc1)NCCc1ccccc1	-5	5%	-7%	-7.1%
COc1ccc(CNC(=O)C/C(C)=N/NC(=O)c2cnccn2)cc1	9	-10%	-6%	0.0%
NNC(=O)c1cc(Cl)ccc1Cl	-4	16%	-5%	0.3%
CC(=O)Nc1ccc(NC(=O)CSc2ccc(-c3ccc(-n4ccnc4)cc3)nn2)cc1	.	.	-1%	-1.1%
O=C(NCC(c1ccco1)N1CCCCC1)c1cccs1 (stereo not given)	.	.	-12%	-3.9%
O=C(CSc1cccc[n+]1[O-])c1ccccc1Br	-1	-17%	0%	3.3%
CC(=O)c1ccn(S(=O)(=O)c2ccc(Cl)cc2)c1	-1	-2%	1%	-2.5%
Cc1cc([N+](=O)[O-])c2ccccc2c1NS(=O)(=O)c1ccccc1	.	.	0%	-0.4%
Cc1nn(-c2ccccc2)c(C)c1/C=N/NC(=O)c1cc(-c2ccc(Cl)s2)[nH]n1	-14	13%	-8%	-1.4%
CCCCCOc1ccc(/C=C/C(=O)NCCc2nc3ccccc3[nH]2)cc1OC	18	-2%	-8%	-5.2%
O=C(/C=C\c1ccco1)Nc1nc(-c2ccc3ccccc3c2)cs1	2	13%	1%	-3.1%
CCn1c(-c2cccc(Cl)c2)n[nH]c1=S	-2	-6%	-1%	5.7%
Cc1cccc(N(Cc2cc(=O)[nH]c3ccccc23)C(=O)C(C)C)c1	0	2%	-21%	0.2%
CC(=O)Oc1ccc2c(c1)c(C(C)=O)c(C)n2C	-8	-11%	13%	-0.1%
N#CCC(CNc1ncc(C(F)(F)F)cc1Cl)OC(=O)c1ccc(Cl)cc1 (stereo not given)	-24	-11%	0%	0.0%
Cc1cccc(C(=O)OCC(=O)NN2C(=O)NC3(CCCCC3)C2=O)c1	.	.	-4%	0.3%
Cc1ccc(OCC(O)CN2C(=O)NC(C)(C)C2=O)cc1 (stereo not given)	1	-7%	-7%	0.2%
COc1ccc(Br)c(C(=O)OCc2cc(=O)oc3cc(C)ccc23)c1	.	6%	1%	1.8%
Cc1ccc(Cn2ccc(NC(=O)c3cc4nc5c(c(C(F)(F)F)n4n3)CCc3ccccc3-5)n2)cc1	13	-3%	.	.
CC(=O)OCC1=C(C(=O)O)N2C(=O)C(NC(=O)c3ccc(COc4c(C)cccc4Cl)o3)C2SC1 (stereo not given)	1[21.1 µM]	-5%	-13%	1.8%
COc1ccc(-c2c3c(=O)n(C)c(=O)n(C)c3cn2Cc2ccccn2)cc1	-1	-6%	5%	-0.5%
O=C1CCC[C@@H]2[C@@H](Cc3ccccc3)[C@H](N3CCN(c4ccccc4)CC3)C[C@@H]3CCN1[C@@H]32	.	.	15%	0.8%
CC1(NC(=O)Cc2csc(-c3ccc(Cl)cc3)n2)CCS(=O)(=O)C1 (stereo not given)	.	.	-10%	1.7%
CCC(=O)Nc1ccc2oc(-c3ccccc3Br)nc2c1	5	-55%	-3%	-1.0%
CC1CCCCN1Cc1nc2c(c(=O)n(C)c(=O)n2C)n1Cc1c(F)cccc1Cl (stereo not given)	-2	0%	1%	-3.4%
CC(=O)c1ccc(S(=O)(=O)Nc2ccc3c(c2)OCO3)cc1	.	.	21%	-1.4%
CC(=O)c1c(C(C)=O)c(C)n(-c2ccc(C(=O)O)cc2)c1C	3	-2%	2%	0.1%
COCCn1c(SCc2cc(=O)n3cc(C)ccc3n2)nc2ccccc2c1=O	5	2%	.	.
CCCCNC(=O)NCCN1CCOCC1	1	-1%	-9%	-1.1%
COC(=O)[C@@]1(Cc2ccc(OC)cc2)[C@@H]2C(=CC(=O)[C@H]2CC(=O)C(=O)N(C)C)CN1C(=O)c1ccccc1	13&0	?	-23%	2.1%
S=c1[nH]nc(-c2cc(-c3ccccc3)n[nH]2)n1/N=C/c1cccc(Cl)c1	-17	-34%	-6%	1.0%
CCn1c(SCCC(=O)O)nnc1-c1cccnc1	1	-3%	1%	0.3%
Cc1nc(SCC(=O)Nc2ccc(N3CCOCC3)cc2)nc(C)c1C	5	-15%	-5%	-0.8%
Cc1ccc(-c2c(C)c(-c3ccc(F)cc3)nc(N)c2C#N)o1	6	-9%	-10%	0.0%
CCOC(=O)c1c(NC(=O)CSc2nnnn2-c2ccccc2)sc2c1CC(C)(C)NC2(C)C	.	-10%	-1%	-1.3%
COCCNC(=O)C1CCCN(c2nn3c(=O)cc(C)nc3s2)C1 (stereo not given)	1	-5%	-15%	1.6%
NNC(=O)CSc1nc(-c2ccccc2)nc2c1CCCC2	3	1%	-17%	0.6%
Cc1ccccc1N(CC(=O)Nc1ccccc1C(=O)O)S(C)(=O)=O	4	-20%	4%	-0.4%
Cc1ccc(-c2nnc(N3CCCCC3)c3ccccc23)cc1S(=O)(=O)NCC1CCCO1 (stereo not given)	-2	12%	4%	-2.3%
O=[N+]([O-])c1ccc2nc(Cl)nc(-c3ccccc3)c2c1	.	8%	-6%	0.5%
COC(=O)C(C)N(C(=O)c1cccc2ccccc12)c1c(C)cccc1C (stereo not given)	2	16%	4%	-2.7%
COc1ccccc1NC(=S)N(Cc1ccc(C)cc1)Cc1cccnc1	0	13%	3%	-0.4%
CN(C(=O)CSc1ncnc2sccc12)C1CCS(=O)(=O)C1 (stereo not given)	.	.	1%	0.0%
Cc1c(Cl)cnc(NC(=O)COC(=O)c2ccncc2)c1Cl	.	.	?	?
COc1ccccc1C(=O)Nc1cccc(N(C)S(C)(=O)=O)c1	4	-11%	0%	?
O=c1[nH]c(=O)n(-c2ccccc2)c2c1C(C(F)(F)F)(C(F)(F)F)N=C(CCC1CCCCC1)N2	7	-4%	-6%	1.0%
Cc1cccc(NS(=O)(=O)c2ccc(OCC(=O)N3CCCC3)cc2)c1	.	3%	30%	-0.4%
Cc1occc1C(=O)Nc1cccc(Cn2cccn2)c1	-19	-22%	-4%	-1.3%
O=C(CSc1nc(O)cc(=O)n1-c1ccccc1)N1CCCCC1	-5	-1%	-8%	-0.5%
Cc1cc2c(c(=O)n1C)C(Cc1ccccc1)C(C#N)=C(N)O2 (stereo not given)	2	-9%	?	?
CCC1CCCCN1CCCNC(=O)Cn1c(=O)c2cccn2c2ccccc21 (stereo not given)	.	-6%	?	-0.1%
CCC(=O)N1CCN=C1SCc1cc(C)ccc1C	.	0%	1%	-0.2%
COc1ccc(OCCOC(=O)CNS(=O)(=O)c2ccc(SC)c([N+](=O)[O-])c2)cc1	.	.	-9%	-3.1%
CC(C)c1nc(SCc2c(F)cccc2Cl)c2c(=O)n(C)c(=O)n(C)c2n1	5	-2%	-15%	2.0%
COc1ccc(CNC(=O)C(c2ccc(C)o2)N(C(=O)c2csnn2)c2ccc(C(C)C)cc2)cc1 (stereo not given)	-16	12%	10%	-0.9%
